Screening data from PubChem BioAssay.
Calb biofilm kill = clotrimazole potentiators killing C. albicans biofilm, primary screen, 4-compound mixtures. C. albicans biofilm persisters + clotrimazole, fluorescence viability; primary screen in compound mixtures of four per well. 120,000 compounds, 0.02% hits. inhibition, % at 7.6 µM;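 active = inhibition above 30.3% in the primary screen of four-compound pools, then above 30% when the compound was retested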;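 also: compounds exposed to preformed 24 h biofilms for 48 h; the number belongs to the whole pool; some results filed as inactive read as strong as hits; inactives centre near 12; 0% = biofilm with clotrimazole alone and 100% = kill control; retested singly at about 60 µM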
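Incubation: 24 h biofilm formation, then 48 h compound exposure, 37 °C | Material: C. albicans biofilms | Buffer or medium: RPMI/MOPS medium, pH 7.0 | Measured by: 2-h Alamar Blue fluorescence, 535/590 nm excitation/emission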
The depositor's hits bear a star. A portion of the library; count on the stated rates, not on these rows.

SMILES	Calb biofilm kill
O=c1oc2ccccc2c2oc3cc(O)c(O)cc3c12	14
CC(C)C[C@@H]1NC(=O)[C@H](CO)NC(=O)c2cc([N+](=O)[O-])cc(I)c2OCC[C@@H](C(N)=O)NC1=O	18
CC(C)[C@H](Nc1ccc(S(=O)(=O)N2CCOCC2)cc1[N+](=O)[O-])C(=O)OCC(N)=O	15
Cc1cc(SCC(=O)NN)c2cc(Br)ccc2n1	7
COc1ccc(-c2csc3nc[nH]c(=O)c23)cc1	7
COc1ccc(C(Nc2ccccn2)c2c(NC(=O)c3ccco3)sc(C)c2C)cc1 (centres undefined)	2
CC(C)CCNC(=O)CCn1c(=S)oc2ccccc21	15
NC(=O)c1cc2cc(Cl)ccc2o/c1=N/NC(=O)c1cccs1	13
CN(C)S(=O)(=O)c1ccc(NC(=O)CSc2ncnc3ccccc23)cc1	25
CCCCCn1c(=O)c2ccccc2n2c(CCl)nnc12	2
Cc1cc2c(NC(=O)CC(C)(C)CC(=O)O)cccc2nn1	21
O=C(O)Cc1ccc(NS(=O)(=O)c2ccccc2Br)cc1	14
CCOc1ccc(-n2c(O)c(/C=N/Nc3nnc(C)c(=O)[nH]3)c3ccccc3c2=O)cc1	3
Cc1nn(C)c(C)c1CCC(=O)O	16
C/C(Cn1nnc([N+](=O)[O-])n1)=N\NC(=O)c1ccc(O)cc1	20
COc1ccc(-c2cc(C(=O)Nc3cc(C)on3)no2)cc1OC	12
CC(OC(=O)c1ccncc1)C(=O)Nc1cccc([N+](=O)[O-])c1 (centres undefined)	16
CCN(CC)CCn1c(C)nc2ccccc21	13
CCOCCCNC(=O)/C(C#N)=C/c1cc(Br)c(O)c(Br)c1	20
Cc1ncoc1C(=O)N1CCc2c([nH]c3ccccc23)C1c1ccccc1F (centres undefined)	17
COCC(=O)N(Cc1cc2ccc(C)c(C)c2n2nnnc12)C1CCCC1	10
CC[N+]1(C)CC2CCC(C)(C1)C2(C)C (centres undefined)	10
CCCCN1CNC(=S)N(CCc2ccc(OCC)c(OCC)c2)C1	11
CSc1ccccc1C(=O)C1CCCN(S(=O)(=O)N(C)C)C1 (centres undefined)	-1
O=C(O)c1ccc(NC(=S)Nc2ccccc2)cc1	7
C=CCNC(=O)/C(C#N)=C/c1ccc(SC)cc1	13
O=C(N/N=C/c1ccc(Br)o1)c1cc([N+](=O)[O-])cc([N+](=O)[O-])c1	1
O=C(O)c1ccccc1-c1nc2ccccc2c(=O)n1O	15
Cc1ccc(C)c(CS(=O)(=O)c2cn(CC(=O)N3CCC(C)CC3)c3ccccc23)c1	15
CC1(C)COC(c2coc3ccccc3c2=O)OC1	10
CC1CCCC(C)N1C(=O)COc1ccc(C(=O)N/N=C/c2ccc(C(=O)O)cc2)cc1 (centres undefined)	8
Nc1c(C(=O)Nc2ccc(S(=O)(=O)N3CCCC3)cc2)sc2nc3cc4c(cc3cc12)CCC4	8
COc1ccc(-c2ccc(SCC(=O)NCC3CCCO3)nn2)cc1OC (centres undefined)	15
COc1ccc(C)cc1S(=O)(=O)N1CCOCC1	9
O=[N+]([O-])c1ccc(/C=N/Nc2nc(N3CCCCC3)nc(N3CCCCC3)n2)cc1	-5
CCOc1cccc(/C=N/NC(=S)NCCN2CCOCC2)c1O	10
CCOc1ccc(N2C(=O)/C(=C/c3ccccn3)SC2=S)cc1	19
CC(=O)c1ccc2c(c1)C1C=CCC1C(C(=O)O)N2 (centres undefined)	22
CCCCN(CCCC)CCCNC(=O)C1CC(c2ccc(C(F)(F)F)cc2)=NO1 (centres undefined)	8
CC1(C)CC(=O)c2cc(N=C/C(C(=O)c3ccccc3)=C(\O)c3ccccc3)c(=O)oc2C1	19

4 compounds from above, sorted by formula weight, largest number first:
SMILES	Calb biofilm kill
Nc1c(C(=O)Nc2ccc(S(=O)(=O)N3CCCC3)cc2)sc2nc3cc4c(cc3cc12)CCC4	8
O=[N+]([O-])c1ccc(/C=N/Nc2nc(N3CCCCC3)nc(N3CCCCC3)n2)cc1	-5
COCC(=O)N(Cc1cc2ccc(C)c(C)c2n2nnnc12)C1CCCC1	10
CC[N+]1(C)CC2CCC(C)(C1)C2(C)C (centres undefined)	10

More records follow:
SMILES	Calb biofilm kill
CCSc1ccccc1C(=O)Nc1nc2ccccc2c(=O)[nH]1	7
O=P(Cc1ccccc1)(c1ccccc1)c1ccccc1	24
COc1ccc(/C=C(\NC(=O)c2cccs2)C(=O)N2CCOCC2)cc1OC	0
O=S(=O)(c1ccc2ccccc2c1)N1CCN(Cc2ccccn2)CC1	15
N=C(N)c1ccc(Cl)cc1	10
Cc1cc(-c2ccccc2)n[nH]1	12
CC(=O)c1ccc(NC(=O)C2CCN(S(=O)(=O)c3cccs3)CC2)cc1	23
CCOC(=O)c1c(C)nc2c(c1C)c(=O)oc1ccccc12	16
CCOc1ccc2c(c1)C(N(CCN1CCOCC1)C(=O)Nc1ccc(OC)cc1OC)CC(C)(C)O2 (centres undefined)	15
COC(=O)c1ccc(/C=C/c2ccc3cccc(OC(C)=O)c3n2)cc1	15
CCOC(=O)Cc1c(Sc2ccccc2)c2ccccc2n1C	22
Cn1c(CBr)c(C(=O)c2ccc([N+](=O)[O-])cc2)c(=O)n(C)c1=O	21
COCCNC(=O)/C(C#N)=C/c1ccc(C)o1	52
O=C(NNC(=O)c1cccs1)c1ccccc1	4
CC(C)(C)NC(=O)NC(=O)CSc1ncccn1	6
Cc1ccc(/C=N/NC(=O)Cn2cnc3c2c(=O)n(C)c(=O)n3C)s1	14
COC(=O)c1ccc(NC(=S)NCCc2ccccc2C)cc1	9
CCOC(=O)c1c(NC(=O)CSc2nnc(-c3c[nH]c4ccccc34)n2CC)sc2c1CCCC2	3
N#C/C(=N\Nc1ccc([N+](=O)[O-])cc1)C(N)=S	20
COc1cc(/C=N/NC(=S)NC2CC3C=CC2C3)cc(OC)c1OC (centres undefined)	15
NC(=S)Nc1ccc(F)c(F)c1F	27
O=C(Nc1ccccc1)C1=C[C@H](c2ccc3c(c2)OCO3)C[C@H](OCc2ccc(CO)cc2)O1	15
Cc1cc(NC(=O)C2CC(c3c(F)cccc3Cl)=NO2)n(-c2ccccc2)n1 (centres undefined)	-10
CC1=C(C(=O)N2CCOCC2)C(c2ccc(O)cc2)NC(=S)N1 (centres undefined)	5
CN(C(=O)CSc1nnc(-c2ccc(F)cc2)c2ccccc12)C1CCS(=O)(=O)C1 (centres undefined)	9
COc1cccc(S(=O)(=O)c2nc(C)c3c(n2)CCC3)c1	11
O=C(NNC(=O)[C@@H]1CCCC[C@@H]1C(=O)O)Nc1ccccc1	22
Cc1cc(NC(=O)CCCn2cc([N+](=O)[O-])cn2)n(Cc2ccc(F)cc2)n1	15
Cc1c(C(=O)Oc2cccc3cccnc23)oc2ccccc12	5
CC1(C)Cc2ccccc2C(N/N=C/c2ccc(Cl)cc2)=N1	9
CCCCNC(=S)Nc1ccc(Cl)cc1	15
Cc1ccc(Cl)c(NC(=O)CN2CCNC(=O)C2)c1Cl	9
CCOC(=O)N1CCN(CC(O)COc2ccc(C)cc2C(C)(C)C)CC1 (centres undefined)	7
CCNS(=O)(=O)c1ccc2c(c1)NCC2	8
O=C(Nc1ccccc1OC(=O)c1ccc(Cl)cc1)c1ccc(Cl)cc1	14
CCc1c(C)sc(NC(=O)C2CCCO2)c1C#N (centres undefined)	1
N#Cc1ccc(C(=O)Nc2cc(S(=O)(=O)N3CCCC3)ccc2OCC(F)(F)F)cc1	10
Cc1ccc(N(C(=O)C2COc3ccccc3O2)C(C(=O)NC2CCCCC2)c2cn(C)nc2C)cc1 (centres undefined)	19
Cc1cc(C)n2nc(C(=O)Nc3cccc(S(=O)(=O)N(C)c4ccccc4)c3)nc2n1	14
CCNC(=O)CSc1nc2ccccc2c(=O)n1-c1cccc(OC)c1	14

5 of these compounds in another layout:
| molecule | Calb biofilm kill |
| --- | --- |
| CCOC(=O)c1c(C)nc2c(c1C)c(=O)oc1ccccc12 | 16 |
| CCOc1ccc2c(c1)C(N(CCN1CCOCC1)C(=O)Nc1ccc(OC)cc1OC)CC(C)(C)O2 (centres undefined) | 15 |
| COC(=O)c1ccc(/C=C/c2ccc3cccc(OC(C)=O)c3n2)cc1 | 15 |
| CCOC(=O)Cc1c(Sc2ccccc2)c2ccccc2n1C | 22 |
| Cn1c(CBr)c(C(=O)c2ccc([N+](=O)[O-])cc2)c(=O)n(C)c1=O | 21 |

Further structures follow:
SMILES	Calb biofilm kill
COc1ccc(C(=O)O/N=C(/c2cccs2)C(C)(C)C)cc1	12
CCCCOc1ccc(CN=C(N)N)cc1Cl	13
CCOCCCNC(=O)C(NC(=O)Cc1cccs1)c1ccc(C)cc1 (centres undefined)	-4
CCOc1ccc(-n2nc3c(=S)[nH]nc(C)c3c2C)cc1	11
Cc1ccc(-n2c(O)c(/C=N/Nc3ccc(S(=O)(=O)N4CCOCC4)cc3[N+](=O)[O-])c3ccccc3c2=O)c(C)c1	8
COc1ccc(C)cc1-n1nnnc1SCC(=O)Nc1cccnc1Cl	9
O=C(Nc1nnc(C2CC2)s1)c1ccc(Cl)c(S(=O)(=O)N2CCc3ccccc3C2)c1	13
O=C(/C=C/c1ccco1)N(Cc1cccc(Br)c1)C1CCS(=O)(=O)C1 (centres undefined)	27
Cc1ccc(OCC(=O)NC2CC(C)(C)NC(C)(C)C2)cc1C	-8
N/C(Cn1cncn1)=N\OC(=O)c1ccc(Cl)cc1	-7
Cc1cccc(NC(=S)NNC(=O)c2cc3c(s2)CCC(C)C3)c1C (centres undefined)	9
CN(C)C(=S)Nc1nc2ccccc2s1	11
O=C(CSc1nc2ccc(Cl)cc2[nH]1)c1c[nH]c2ccccc12	17
O=C(COc1ccc(Br)cc1Cl)NC1CCCCC1	8
O=C(NCc1ccco1)c1cc([N+](=O)[O-])ccc1Cl	-17
CC(=O)Nc1ccc(S(=O)(=O)N2CCN(CC3CC4C=CC3C4)CC2)cc1 (centres undefined)	3
COc1cc(O)c(C(CCN2CCCCC2)c2ccc(N(C)C)cc2)c(OC)c1 (centres undefined)	14
COc1ccc(CN(C)Cc2nc(Cc3cccc(F)c3)no2)c2cccnc12	-5
CCOc1cc(/C=N/Nc2ccc(C(=O)O)cc2)ccc1OC(=O)c1ccccc1C	6
CCC(C(=O)NC1CCCC1)n1c(SCc2cccc(C)c2)nc2ccncc21 (centres undefined)	11
CCN(C(=O)/C=C/c1ccc2c(c1)OCO2)c1ccccc1	13
O=C(Nc1ccc(S(=O)(=O)NCC2CCCO2)cc1)c1ccc(Cl)cc1[N+](=O)[O-] (centres undefined)	2
COc1ccc(-c2cc(C(F)(F)F)nc(S(=O)(=O)CCCC(=O)Nc3cc(C)on3)n2)cc1OC	4
CC1CCCCN1c1ccc(N)cc1C(N)=O (centres undefined)	4
Nc1ncc(CCN2CCOCC2)c(-c2ccc(F)cc2)n1	14
O=C(CSc1nc2ccccc2s1)NNC(=S)Nc1ccccc1	15
CC1CC(C)CN(c2ccc(C(=O)NCc3ccc4c(c3)OCO4)cc2[N+](=O)[O-])C1 (centres undefined)	3
NC(=O)COC(=O)c1ccc(S(=O)(=O)NCc2ccco2)cc1	-9
Cc1c(N2C(=O)/C(=C3\C(=O)N(CC(=O)O)c4ccccc43)SC2=S)c(=O)n(-c2ccccc2)n1C	9
O=C(COC(=O)c1cccc(S(=O)(=O)N2CCc3ccccc32)c1)NCc1ccco1	3
Cc1ccc(S(=O)(=O)NCC(=O)OCC(=O)c2c(N)n(C)c(=O)n(C)c2=O)cc1	13
C(=N\Nc1nc(-c2ccccc2)cs1)/c1ccco1	7
C=C1C(=O)C=C2CN(C(=O)c3ccccc3)[C@@](Cc3ccc(F)cc3)(C(=O)OC)[C@@H]12	-1
COc1ccccc1/C=C/C=N/NC(=O)CN1CCN(S(=O)(=O)c2ccc(C)cc2)CC1	22
COc1ccc(CC2S/C(=N/N=C/c3ccccc3O)NC2=O)cc1 (centres undefined)	16
Cc1ccn2c(NC3CCCC3)c(-c3ccccn3)nc2c1	27
Cc1ccc2c(c1)nnn2C1CCN(C(=O)Nc2ccccc2C)CC1	-7
Cc1ccc(C#CC[N+]2(C)CCCCC2)cc1	12
O=C(NNC(=S)Nc1ccccc1)c1cccc(S(=O)(=O)N2CCOCC2)c1	13
N#CC(C#N)=c1ccc2c(c1)N1C(c3ccccc3)=CC(c3ccccc3)C3CCCCC31N=2 (centres undefined)	-4

Compounds shown so far that contain a tert-butyl group (3):
SMILES	Calb biofilm kill
CC(C)(C)NC(=O)NC(=O)CSc1ncccn1	6
CCOC(=O)N1CCN(CC(O)COc2ccc(C)cc2C(C)(C)C)CC1 (centres undefined)	7
COc1ccc(C(=O)O/N=C(/c2cccs2)C(C)(C)C)cc1	12

Next section:
SMILES	Calb biofilm kill
CC(=O)C1=C(O)C(=O)N(Cc2cccnc2)C1c1ccc(Cl)cc1Cl (centres undefined)	18
O=C(NCc1cccc2ccccc12)Nc1ccccc1	-6
CCC(=O)NC(/C=C/c1ccccc1)c1cc([N+](=O)[O-])c2cccnc2c1O (centres undefined)	30
CC(C)c1ccc(NC(=O)CCCN2C(=S)NC(C)(C)CC2C)cc1 (centres undefined)	13
FC(F)(F)Oc1ccccc1-c1nnc(-c2cccc(C(F)(F)F)c2)o1	24
Cc1nn(C)c(Sc2ccccn2)c1[N+](=O)[O-]	12
CC(NC(=S)Nc1ccc(Cl)cc1Cl)C(c1cccs1)N1CCCC1 (centres undefined)	-1
Cc1c(NC(=O)CCc2ccccc2)cccc1[N+](=O)[O-]	26
COc1ccccc1-n1c(SCC(=O)NCc2ccc3c(c2)OCO3)nc2cc([N+](=O)[O-])ccc21	11
O=C(c1ccc(S(=O)(=O)N2CCOCC2)cc1)N1CCOCC1	11
Cc1cc(C)nc(-n2nc(C)cc2NC(=O)c2ccc(F)cc2F)n1	11
CC(=O)c1c(OC(=O)c2cccc(Cl)c2)c2ccccc2n1C	15
Cc1csc(Sc2ccc(S(=O)(=O)N3CCCC3)cn2)n1	6
